Vaccinia stage: blocks a specific stage of Vaccinia orthopoxvirus infection; Vaccinia-infected cells, mCherry/Venus stage reporter fluorescence; active compounds read low; some inactives read as strong as hits; 0.01% of 89,000 active; activity change (mCherry), % (no concentration beside the values);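 active = mCherry past -33% and 40 or more points under the early reporter, replicates agreeing; inconclusive = past -33% without that gap or agreement; tested in A549 cells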;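 also: scaled between vehicle wells and reference inhibitor wells; 23 nL library stock went into each well; one replicate is shown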
Vaccinia stage Venus: second read-out of Vaccinia stage, no call of its own (marks repeat the call); activity change (Venus), %; measured here: Venus reporter, other viral stage;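 negative = less Venus signal; first of two replicates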
Starred values were filed as active, the others as inactive; ? = inconclusive; . = not tested or not shown. The list is partial (hit frequency here may not be typical).

The first three compounds, ahead of the listing:
| canonical_smiles | Vaccinia stage | Vaccinia stage Venus |
| --- | --- | --- |
| O=C(c1cccc(F)c1)N1CC[C@H]2[C@H](CO)Nc3ccc(C#Cc4cccc(F)c4)cc3[C@H]21 | -32 | -30 |
| COc1ccc(CN2C[C@@H](O)COC[C@H]3O[C@@H](CC(=O)NCc4ccccc4Cl)CC[C@@H]32)cc1 | -1 | -4 |
| COc1ccccc1-c1ccc2c(c1)O[C@@H](CN(C)S(=O)(=O)c1ccc(F)cc1)[C@H](C)CN([C@@H](C)CO)S2(=O)=O | -19 | -16 |

The whole of this part, from the start:
| canonical_smiles | Vaccinia stage | Vaccinia stage Venus |
| --- | --- | --- |
| O=C(c1cccc(F)c1)N1CC[C@H]2[C@H](CO)Nc3ccc(C#Cc4cccc(F)c4)cc3[C@H]21 | -32 | -30 |
| COc1ccc(CN2C[C@@H](O)COC[C@H]3O[C@@H](CC(=O)NCc4ccccc4Cl)CC[C@@H]32)cc1 | -1 | -4 |
| COc1ccccc1-c1ccc2c(c1)O[C@@H](CN(C)S(=O)(=O)c1ccc(F)cc1)[C@H](C)CN([C@@H](C)CO)S2(=O)=O | -19 | -16 |
| O=C1CN(S(=O)(=O)Cc2ccccc2)C[C@@H]2[C@@H](c3ccc(C#CCC4CCCC4)cc3)[C@H](CO)N12 | ? | . |
| CC=Cc1ccc2n(c1=O)C[C@H]1[C@H](CO)[C@@H](C(=O)Nc3ccc(-c4ccccc4)cc3)[C@@H]2N1CC (mixture of isomers) | -32 | -33 |
| COCC(=O)N1CC[C@H]2[C@@H]1c1cc(-c3ccccc3)ccc1N(C)[C@H]2CO | 6 | -1 |
| CCC(=O)N1C[C@H](C)[C@@H](OC)CN(C)C(=O)c2cc(NC(=O)NC(C)C)ccc2OC[C@H]1C | -2 | -1 |
| CC(C)NC(=O)Nc1ccc2c(c1)C(=O)N([C@@H](C)CO)C[C@@H](C)[C@H](CN(C)C(=O)Nc1ccc(F)cc1)OCCCC[C@@H](C)O2 | 3 | 1 |
| CC(C)NC(=O)N(C)C[C@@H]1OCc2cnnn2CCCC(=O)N([C@@H](C)CO)C[C@H]1C | 14 | 9 |
| Cc1ccc(-c2ccc3c(c2)O[C@H](CN(C)C(=O)CN(C)C)[C@H](C)CN([C@H](C)CO)S3(=O)=O)cc1 | -21 | -24 |
| CNC[C@@H]1Oc2cc(C#C[C@H](C)O)ccc2S(=O)(=O)N([C@@H](C)CO)C[C@@H]1C | 3 | 8 |
| Cc1noc(C)c1S(=O)(=O)N(C)C[C@H]1Oc2ccc(NC(=O)NC(C)C)cc2CC(=O)N([C@@H](C)CO)C[C@H]1C | 16 | 19 |
| COc1ccc(S(=O)(=O)Nc2cccc3c2O[C@@H](CN(C)C(=O)Nc2ccccc2)[C@@H](C)CN([C@H](C)CO)C3=O)cc1 | 0 | 4 |
| CC(C)NC(=O)N(C)C[C@H]1OCCCC[C@@H](C)Oc2ccc(NC(=O)Nc3ccc4c(c3)OCO4)cc2C(=O)N([C@@H](C)CO)C[C@H]1C | 10 | 6 |
| COc1cccc(C#Cc2ccc([C@@H]3[C@@H](C#N)N[C@@H]3CO)cc2)c1 | 7 | 11 |
| O=C(C[C@H]1C[C@H]2c3cc(NC(=O)NC4CCCC4)ccc3O[C@H]2[C@@H](CO)O1)NC1CCCCC1 | 6 | 2 |
| CCC(=O)N1C[C@H](O)COC[C@@H]2O[C@@H](CC(=O)NCc3ccccc3Cl)CC[C@H]21 | 15 | 17 |
| C[C@@H]1CN([C@@H](C)CO)C(=O)c2cc(NC(=O)Cc3ccccc3)ccc2O[C@H]1CN(C)Cc1ccc(Cl)c(Cl)c1 | ? | . |
| O=C(C[C@@H]1C[C@H]2c3cc(NC(=O)c4ccc5c(c4)OCO5)ccc3O[C@H]2[C@@H](CO)O1)NCC1CC1 | 5 | 7 |
| O=C(C[C@@H]1C=C[C@H](NC(=O)Nc2ccc3c(c2)OCO3)[C@@H](CO)O1)NCc1ccc(Cl)cc1 | 0 | 7 |
| COc1ccc(S(=O)(=O)Nc2ccc3c(c2)C(=O)N([C@H](C)CO)C[C@@H](C)[C@H](CN(C)C(=O)Nc2c(C)noc2C)O3)cc1 | 1 | -1 |
| CO[C@H]1CN(C)C(=O)c2cc(NS(C)(=O)=O)ccc2OC[C@@H](C)N(CC2CC2)C[C@H]1C | 6 | 11 |
| C[C@H]1CN([C@@H](C)CO)C(=O)c2cc(C#CCN(C)C)cnc2O[C@H]1CN(C)C(=O)Cc1ccccc1 | 9 | 16 |
| C#CCNC(=O)C1=C[C@@H](C2CCCCC2)C[C@@H](OCc2ccc(CO)cc2)O1 | -2 | -2 |
| C[C@@H]1CCCCO[C@@H](CN(C)Cc2ccc(C(F)(F)F)cc2)[C@@H](C)CN([C@H](C)CO)C(=O)c2cc(NS(=O)(=O)c3ccc(Cl)cc3)ccc2O1 | ? | . |
| Cc1noc(C)c1S(=O)(=O)N(C)C[C@H]1Oc2c(NC(=O)c3ccc(-c4nccs4)cc3)cccc2C(=O)N([C@H](C)CO)C[C@@H]1C | -1 | -4 |
| O=C(C[C@H]1C=C[C@H](NC(=O)Nc2ccccc2)[C@H](CO)O1)NCc1cccc(F)c1 | -8 | 2 |
| CO[C@@H]1CN(C)C(=O)c2ccc(NC(=O)Nc3ccccc3)cc2OC[C@@H](C)N(C(=O)CC2CC2)C[C@@H]1C | 14 | 8 |
| C[C@@H]1CCCCO[C@H](CN(C)Cc2ccncc2)[C@@H](C)CN([C@H](C)CO)C(=O)c2cc(NS(=O)(=O)c3cccs3)ccc2O1 | 13 | 14 |
| C[C@@H]1CN([C@@H](C)CO)C(=O)c2cc(Br)cnc2O[C@@H]1CN(C)Cc1ccc(C(=O)O)cc1 | 15 | 5 |
| COc1ccccc1C#Cc1ccc([C@@H]2[C@@H](CO)N(C(=O)C3CCCCC3)[C@H]2C#N)cc1 | ? | . |
| O=C(C[C@H]1CC[C@H](NC(=O)Nc2cc(F)ccc2F)[C@H](CO)O1)Nc1ccccc1 | 3 | 0 |
| O=C(C[C@@H]1C=C[C@H](NC(=O)c2ccncc2)[C@H](CO)O1)Nc1ccccc1 | 14 | 5 |
| C[C@@H]1CCCCO[C@H](CN(C)C(=O)CCC(F)(F)F)[C@@H](C)CN([C@@H](C)CO)C(=O)c2cc(NS(=O)(=O)c3cn(C)cn3)ccc2O1 | 14 | 5 |
| C[C@@H]1CN([C@H](C)CO)S(=O)(=O)c2ccc(-c3cccc(C#N)c3)cc2O[C@@H]1CN(C)C | 18 | -7 |
| C[C@H](CO)N1C[C@H](C)[C@@H](CN(C)C(=O)c2ccccc2)Oc2ncc(C#CC3CC3)cc2C1=O | 14 | 1 |
| O=C(C1CCCCC1)N1CC(=O)N2[C@@H](CO)[C@@H](c3ccc(-c4ccccc4F)cc3)[C@@H]2C1 | -15 | -8 |
| C[C@@H]1CN([C@H](C)CO)C(=O)c2cccc(NS(=O)(=O)c3ccc(F)cc3)c2O[C@H]1CN(C)Cc1ccc(Cl)c(Cl)c1 | -8 | -5 |
| C[C@@H]1CN([C@H](C)CO)S(=O)(=O)c2ccc(C#CC3CCCC3)cc2O[C@@H]1CN(C)C | ? | . |
| C[C@@H]1CN([C@@H](C)CO)S(=O)(=O)c2ccc(C#C[C@@H](C)O)cc2O[C@H]1CN(C)C | 18 | 0 |
| O=C(C[C@H]1C[C@H]2c3cc(NC(=O)NC4CCCCC4)ccc3O[C@H]2[C@@H](CO)O1)NCCc1ccccc1 | 11 | 5 |
| O=C(NCC1CC1)[C@@H]1[C@@H](CO)[C@@H]2Cn3c(ccc(-c4cccnc4)c3=O)[C@H]1N2C(=O)C1CCCCC1 | 4 | -2 |
| C[C@@H]1CN([C@H](C)CO)C(=O)c2cc(NC(=O)Nc3ccccc3)ccc2O[C@@H](C)CCCCO[C@@H]1CN(C)S(=O)(=O)c1cn(C)cn1 | 27 | 24 |
| C[C@H]1CN([C@@H](C)CO)S(=O)(=O)c2ccc(-c3ccccc3F)cc2O[C@H]1CN(C)Cc1cncnc1 | -6 | -7 |
| COc1ccccc1-c1cnc2c(c1)C(=O)N([C@H](C)CO)C[C@H](C)[C@H](CN(C)Cc1cccc(F)c1)O2 | -8 | 0 |
| COc1ccc(NC(=O)Nc2ccc3c(c2)CC(=O)N([C@H](C)CO)C[C@@H](C)[C@H](CN(C)CC2CCCCC2)O3)cc1 | ? | . |
| CC(=O)N1CCCCN2[C@@H](CO)[C@H](c3ccc(Br)cc3)[C@@H]2C1 | 18 | 14 |
| Cc1cc(C(=O)Nc2ccc3c(c2)C(=O)N(C)[C@@H]2CC[C@@H](CC(=O)NC4CCCC4)O[C@H]2CO3)no1 | -2 | -4 |
| CCCNC(=O)N1CCC2(CC1)CN(Cc1ccc(F)cc1)[C@@H](CO)c1[nH]c3cc(OC)ccc3c12 | 6 | 0 |
| COc1ccc(CN(C)C[C@H]2Oc3ccc(NC(=O)CCCN(C)C)cc3C(=O)N([C@H](C)CO)C[C@H]2C)cc1 | 2 | 8 |

Next section.
| canonical_smiles | Vaccinia stage | Vaccinia stage Venus |
| --- | --- | --- |
| C[C@H]1CCCCO[C@H](CN(C)Cc2ccc(C(=O)O)cc2)[C@@H](C)CN([C@@H](C)CO)C(=O)c2cc(NS(C)(=O)=O)ccc2O1 | 22 | 9 |
| O=C(c1ccccc1)N1CC[C@@H]2[C@H]1c1cc(C#CC3CCCCC3)ccc1N[C@@H]2CO | -15 | -10 |
| C/C=C/c1cccc(-c2nc(C(=O)NCc3ccccc3)cc3c2[C@@H](CCO)N([S@](=O)C(C)(C)C)C3)c1 | 6 | 19 |
| O=C(C[C@H]1CC[C@@H]2[C@H](COC[C@H](O)CN2C(=O)c2ccccn2)O1)N1CCN(c2ccccc2)CC1 | 6 | 5 |
| C[C@@H]1CN([C@H](C)CO)C(=O)c2cc(NS(=O)(=O)c3cn(C)cn3)ccc2O[C@H]1CN(C)Cc1ccc2c(c1)OCO2 | -2 | 3 |
| COc1ccc2c3c(n(C)c2c1)[C@@H](CO)N(C(=O)c1ccc(F)cc1)CC31CCN(C(=O)Nc2ccc(F)cc2)CC1 | -22 | -16 |
| C[C@@H]1CN([C@@H](C)CO)S(=O)(=O)c2ccc(-c3ccc(C(=O)N(C)C)cc3)cc2O[C@@H]1CN(C)C(=O)Cc1ccccn1 | 19 | 5 |
| C[C@@H]1CN([C@@H](C)CO)C(=O)c2cccc(NC(=O)C3CCOCC3)c2O[C@@H]1CN(C)Cc1ccc(C(=O)O)cc1 | 13 | 6 |
| C[C@H]1CN([C@@H](C)CO)C(=O)c2cc(NS(=O)(=O)c3ccc(Cl)cc3)ccc2O[C@@H]1CN(C)S(=O)(=O)c1ccc(F)cc1 | 1 | 1 |
| O=C(C[C@@H]1C[C@H]2c3cc(NC(=O)Nc4ccc(C(F)(F)F)cc4)ccc3O[C@H]2[C@H](CO)O1)NCCc1ccccc1 | -15 | -10 |
| COc1cccc(NC(=O)N[C@@H]2CC[C@H](CC(=O)N3CCN(C)CC3)O[C@H]2CO)c1 | 8 | 11 |
| CCc1sc(N2[C@H](C#N)[C@H](c3ccccc3-c3ccc(F)cc3)[C@@H]2CO)nc1C | 6 | 1 |
| CN(C)C(=O)[C@@]1(Cc2ccccc2)N=C(c2ccc(OCCCO)cc2)O[C@H]1c1ccccc1 | -14 | -3 |
| O=C(Cc1ccccn1)NCC[C@@H]1CC[C@H](NC(=O)Nc2ccccc2)[C@@H](CO)O1 | 3 | -1 |
| CCS(=O)(=O)Nc1ccc2c(c1)C(=O)N(C)[C@@H]1CC[C@H](CC(=O)OC)O[C@H]1CO2 | -7 | -17 |
| CC(=O)N[C@H]1CC[C@H](CCNC(=O)C2CC2)O[C@@H]1CO | 2 | 3 |
| O=C(N[C@H]1CC[C@@H](CCNC(=O)C2CCCCC2)O[C@H]1CO)c1ccccn1 | -2 | 16 |
| COc1cccc(-c2ccc([C@@H]3[C@@H](CO)N4C(=O)CN(C(=O)C5CCOCC5)C[C@H]34)cc2)c1 | ? | . |
| Cc1ccc(S(=O)(=O)NCC[C@H]2CC[C@@H](NC(=O)CCN3CCCCC3)[C@H](CO)O2)cc1 | 8 | 10 |
| COc1cccc(-c2ccc([C@@H]3[C@@H](CO)N4CCCCN(C(=O)Cc5ccncc5)C[C@H]34)cc2)c1 | -6 | -8 |
| CCC(=O)NC[C@H]1[C@H](c2ccc(C3=CCCC3)cc2)[C@@H](CO)N1C(C)=O | 2 | 18 |
| C[C@H](CO)N1C[C@H](C)[C@@H](CN(C)C(=O)NC2CCCCC2)Oc2ccc(NC(=O)Nc3cccc4ccccc34)cc2CC1=O | 15 | 10 |
| CC(C)C#Cc1cnc2c(c1)C(=O)N([C@@H](C)CO)C[C@H](C)[C@H](CN(C)C(=O)Nc1ccc(F)cc1)O2 | 15 | 6 |
| C[C@@H]1CN([C@H](C)CO)C(=O)c2cccc(N(C)C)c2O[C@H]1CN(C)S(=O)(=O)c1ccccc1 | 11 | 6 |
| CN1c2ccc(-c3cccc(F)c3)cc2[C@H]2[C@H](CCN2C(=O)C2CC2)[C@@H]1CO | -6 | -6 |

(further entries)
molecule	Vaccinia stage	Vaccinia stage Venus
CCCNC(=O)Nc1ccc2c(c1)OC[C@@H](C)N(C(=O)C1CCCCC1)C[C@H](C)[C@@H](OC)CN(C)C2=O	-3	-2
C[C@H](CO)N1C[C@H](C)[C@H](CN(C)C(=O)Nc2ccc(C(F)(F)F)cc2)Oc2ccc(NC(=O)NC3CCCCC3)cc2C1=O	-5	-2
C[C@H](CO)N1C[C@H](C)[C@H](CN(C)S(=O)(=O)c2ccc(F)cc2)Oc2ccc(NC(=O)CCCCCC(=O)Nc3ccccc3N)cc2C1=O	-11	-10
CO[C@@H]1CN(C)C(=O)c2ccc(NC(=O)c3cc(C)on3)cc2OC[C@H](C)N(C)C[C@@H]1C	10	10
O=C(C1CCC1)N1C[C@H]2[C@@H](c3ccccc31)[C@@H](CO)N2Cc1ccccc1	-5	-10

Complete entries, looked up by structure. Values in the order: Vaccinia stage | Vaccinia stage Venus
`C[C@H](CO)N1C[C@H](C)[C@H](CN(C)C(=O)Nc2ccc(C(F)(F)F)cc2)Oc2ccc(NC(=O)NC3CCCCC3)cc2C1=O` reads -5 | -2
`O=C(C1CCC1)N1C[C@H]2[C@@H](c3ccccc31)[C@@H](CO)N2Cc1ccccc1` reads -5 | -10

Compound activity from PubChem.
